Screens: PubChem, Center for Chemical Genomics, University of Michigan
TAR Tat displ: TAR RNA-Tat peptide displacers, HIV-1, primary screen, biochemical, FRET, FAM/TAMRA-labeled Tat. HIV-1 TAR RNA, Tat peptide displacement FRET; hits give high values. z-score (test concentration not listed). actives 0.6% (n = 100,000);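 note: score is relative to mean and SD of negative controls; some compounds called inactive have numbers as strong as hits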
CDC25B-CDK2 inh: primary biochemical HTRF screen for blockers of M-phase inducer phosphatase 2 binding to CDK2/cyclin A; HTRF CDC25B-CDK2/CyclinA binding, anti-His/anti-Flag; hits give high values; z-score (test concentration not listed); actives 0.72% (n = 94,000); AID 1259370, 2018;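 note: score is relative to mean and SD of negative controls; strong numbers were not always called active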
Numbers without * were called inactive.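 Rule for the calls: active = z-score from 3 up in half or more of its runs; inactive = the rest.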

`CCNc1cc(C)nc(N2CCN(C(=O)Nc3ccc(F)cc3)CC2)n1` gave TAR Tat displ 0.68.
CCOC(=O)C(Nc1ncnc2onc(C)c12)C(=O)OCC was read as TAR Tat displ -0.54.
Screening O=S(=O)(NCCc1nc2ccccc2[nH]1)c1ccccc1 returned TAR Tat displ -0.67 and CDC25B-CDK2 inh -0.2.
Screening COc1cn(CC(=O)NC(C)(C)C)c(CSc2ccc(F)cc2)cc1=O returned TAR Tat displ 0.5.
For O=C(CN1C(=O)c2ccccc2S1(=O)=O)NC1CCCCC1 the results were TAR Tat displ 0.18 and CDC25B-CDK2 inh -0.29.
`O=C(O)COCC(=O)Nc1ccc(-n2cnnn2)cc1` gave TAR Tat displ 0.95 and CDC25B-CDK2 inh -0.25.
CCOc1ccc(-c2nc(C#N)c(N3CCN(C)CC3)o2)cc1 was read as TAR Tat displ 0.71 and CDC25B-CDK2 inh 0.24.
Screening CCCCN1C(=O)c2cc(C(=O)N3CCN(CCC)CC3)nn2CC1(C)C(=O)NC1CCCC1 (stereo not drawn) returned TAR Tat displ 0.61.
Screening CCCN(CCC)CCNc1ncnc2onc(-c3ccc(Cl)cc3)c12 returned TAR Tat displ -6.1 and CDC25B-CDK2 inh -1.1.
Cc1sc(NC(=O)c2cccs2)nc1-c1ccccc1 was read as CDC25B-CDK2 inh -1.4.
`COc1cc(OC)c(NS(=O)(=O)c2ccc3c(c2)CC(C)N3C(=O)C2CCC2)cc1Cl` (stereo not drawn) gave TAR Tat displ 1.2.
`O=C(NCC(c1ccco1)N1CCCC1)c1ccco1` (stereo not drawn) gave TAR Tat displ 2.7 and CDC25B-CDK2 inh 1.
Cc1cc2nc(COC(=O)CSc3ccccc3)cc(=O)n2o1 was read as TAR Tat displ 0.55.
`O=C(CN1C(=O)COc2ccc(S(=O)(=O)N3CCOCC3)cc21)N1CCOCC1` gave TAR Tat displ -1.5.
`Cc1c(C(=O)OCCOc2ccccc2)[nH]c2c1C(=O)CC(c1cccs1)C2` (stereo not drawn) gave CDC25B-CDK2 inh -1.6.
`CCCCCCn1c(CCCO)nc2ccccc21` gave TAR Tat displ -1.9 and CDC25B-CDK2 inh 0.36.
For CCOC(=O)c1cc(S(=O)(=O)Nc2c(C)n(C)n(-c3ccccc3)c2=O)cn1C the results were TAR Tat displ 0.77 and CDC25B-CDK2 inh -0.82.
Cc1cc(-c2cccc(Br)c2)c(C#N)c(N)n1 was read as TAR Tat displ 0.32 and CDC25B-CDK2 inh -18.
`Cc1nc2ccccn2c(=O)c1NC(=O)COc1ccc(Cl)cc1` gave TAR Tat displ 1.
O=C(Nc1c[nH]c2ccccc2c1=O)NC1CCCC1 was read as TAR Tat displ -0.73 and CDC25B-CDK2 inh -1.3.
`COC(=O)CN1C(C(=O)c2ccccc2)=C(OC(C)=O)c2ccccc2S1(=O)=O` gave TAR Tat displ -0.71 and CDC25B-CDK2 inh -0.81.
`Cc1cc(-c2ccc(C)c(S(=O)(=O)N(Cc3ccccc3)C(C)C)c2)on1` gave TAR Tat displ 0.1.
Screening Cc1ccc(NS(=O)(=O)c2cn(C)cn2)cc1F returned TAR Tat displ 1.2.
CSc1sc(-c2nnc(SCC(=O)Nc3ccc(Cl)cc3)n2C)c2c1C=CCC2 was read as CDC25B-CDK2 inh -1.2.
Fc1ccc(-n2nnnc2/C=C/N2CCCCC2)cc1 was read as CDC25B-CDK2 inh -0.72.
Screening O=C(CS(=O)(=O)c1cccc2nsnc12)N1CCN(c2ccc(F)cc2)CC1 returned TAR Tat displ 2.1.
`Nc1nc(-c2ccc(Cl)cc2)nn1C(=O)c1ccc(F)cc1` gave TAR Tat displ 0.51 and CDC25B-CDK2 inh 0.26.
`C=CCOC(=O)C1=C(C)NC2=C(C(=O)CC(C)(C)C2)C1c1ccc(OCCC)c(OC)c1` (stereo not drawn) gave TAR Tat displ 1.4 and CDC25B-CDK2 inh -0.73.
COc1ccc(OC)c(S(=O)(=O)n2nc(C)c(S(=O)(=O)N3CCCC(C)C3)c2C)c1 (stereo not drawn) was read as TAR Tat displ 1.8.
For CCOC(=O)Cc1c(C)nc2c(-c3ccccc3)c(-c3ccccc3)nn2c1C the results were CDC25B-CDK2 inh -0.24.

An excerpt from above in order of molar mass, descending:
CSc1sc(-c2nnc(SCC(=O)Nc3ccc(Cl)cc3)n2C)c2c1C=CCC2 was read as CDC25B-CDK2 inh -1.2.
COc1ccc(OC)c(S(=O)(=O)n2nc(C)c(S(=O)(=O)N3CCCC(C)C3)c2C)c1 (stereo not drawn) was read as TAR Tat displ 1.8.
Screening O=C(CS(=O)(=O)c1cccc2nsnc12)N1CCN(c2ccc(F)cc2)CC1 returned TAR Tat displ 2.1.
For CCOC(=O)c1cc(S(=O)(=O)Nc2c(C)n(C)n(-c3ccccc3)c2=O)cn1C the results were TAR Tat displ 0.77 and CDC25B-CDK2 inh -0.82.
`COC(=O)CN1C(C(=O)c2ccccc2)=C(OC(C)=O)c2ccccc2S1(=O)=O` gave TAR Tat displ -0.71 and CDC25B-CDK2 inh -0.81.
`Cc1cc(-c2ccc(C)c(S(=O)(=O)N(Cc3ccccc3)C(C)C)c2)on1` gave TAR Tat displ 0.1.
`Cc1nc2ccccn2c(=O)c1NC(=O)COc1ccc(Cl)cc1` gave TAR Tat displ 1.
Cc1cc(-c2cccc(Br)c2)c(C#N)c(N)n1 was read as TAR Tat displ 0.32 and CDC25B-CDK2 inh -18.
Fc1ccc(-n2nnnc2/C=C/N2CCCCC2)cc1 was read as CDC25B-CDK2 inh -0.72.
O=C(Nc1c[nH]c2ccccc2c1=O)NC1CCCC1 was read as TAR Tat displ -0.73 and CDC25B-CDK2 inh -1.3.
Screening Cc1ccc(NS(=O)(=O)c2cn(C)cn2)cc1F returned TAR Tat displ 1.2.
`CCCCCCn1c(CCCO)nc2ccccc21` gave TAR Tat displ -1.9 and CDC25B-CDK2 inh 0.36.

Other records.
For Cc1cc(F)ccc1NS(=O)(=O)c1c(C)nc2sccn2c1=O the results were TAR Tat displ -0.53.
O=C(NCCCN1CCCC1)NC1COc2ccccc2C1 (stereo not drawn) was read as TAR Tat displ 0.44.
`S=C1C=C(N2CCCCC2)CC(c2cccs2)S1` (stereo not drawn) gave CDC25B-CDK2 inh -0.99.
For COc1cc(OC)cc(-c2noc(C3CCCN(S(=O)(=O)c4ccccc4)C3)n2)c1 (stereo not drawn) the results were TAR Tat displ 1.6.
`Cn1cc2cc3c(Nc4cccc(Cl)c4)ncnc3cc2n1` gave TAR Tat displ -2.2.
`O=C(NC1CCN(Cc2ccccc2)CC1)c1ccc2c(c1)OCCCO2` gave CDC25B-CDK2 inh -0.59.
O=C(CSc1ncnc2ccccc12)Nc1ccc2c(c1)OCCO2 was read as CDC25B-CDK2 inh -3.
`COCCNC(=O)NC1COc2ccccc2C1` (stereo not drawn) gave TAR Tat displ -0.49.
For CC(C)CCn1c(CN2CC(C)OC(C)C2)nc2c1c(=O)n(C)c(=O)n2C (stereo not drawn) the results were CDC25B-CDK2 inh -0.86.
For COC(=O)C1=C(C)NC(=S)NC1c1cccc2ccccc12 (stereo not drawn) the results were CDC25B-CDK2 inh -1.7.
For CCC12CN3CC(CC)(CN(C1)C3c1cccc(C)c1)C2O (stereo not drawn) the results were TAR Tat displ -1.2 and CDC25B-CDK2 inh -0.37.
For Cc1nn2c(CN(c3ccccc3)S(=O)(=O)c3ccc(Cl)cc3)nnc2c2ccccc12 the results were TAR Tat displ 1.1 and CDC25B-CDK2 inh -0.62.
Screening COc1cccc(Cn2c(=O)n(Cc3ccco3)c(=O)c3oc4ccccc4c32)c1 returned TAR Tat displ 0.94.
For O=C(Nc1cccnc1)C1CCCN1S(=O)(=O)c1cccc2cccnc12 (stereo not drawn) the results were CDC25B-CDK2 inh -0.73.
For c1ccc2c(CN3CCOCC3)noc2c1 the results were TAR Tat displ 0.78.
For Cc1cccc(NC(=O)Nc2ccccc2)n1 the results were TAR Tat displ -1 and CDC25B-CDK2 inh -0.04.
`CN(C)c1nc(N2CCOCC2)nc(N(c2ccccc2)c2ccccc2)n1` gave TAR Tat displ -0.01 and CDC25B-CDK2 inh -0.5.
`O=C(O)c1ccc(-c2nn[nH]n2)cc1` gave CDC25B-CDK2 inh -0.79.
CN1C(C(=O)N2CCN(Cc3ccccc3)CC2)=CC(c2ccc3c(c2)OCO3)=NS1(=O)=O was read as TAR Tat displ 1.7 and CDC25B-CDK2 inh -2.3.
CCOc1ccc(NS(=O)(=O)c2cc(-c3cc(C)no3)ccc2C(C)C)cc1 was read as TAR Tat displ 2.3.
CC(=O)Oc1c(C)c(C)c2oc(=O)ccc2c1C was read as CDC25B-CDK2 inh -2.1.
CC1=C(C(=O)OC(C)C)C(c2cc3c(cc2Cl)OCO3)C2=C(CC(c3ccccc3)CC2=O)N1 (stereo not drawn) was read as TAR Tat displ 1.9 and CDC25B-CDK2 inh 0.08.
Cc1cc(C(F)(F)F)nn1CC(=O)O was read as TAR Tat displ 0.84.
`Cc1cc2c(c(=O)n1CC1CCCO1)C(c1ccc(F)cc1)C(C#N)=C(N)O2` (stereo not drawn) gave CDC25B-CDK2 inh -0.5.
O=C(CN1CCN(c2ccc(F)cc2)CC1)c1ccc2cc[nH]c2c1 was read as TAR Tat displ -0.72 and CDC25B-CDK2 inh -0.87.
For COc1ccc(-c2cc(C(=O)O)c3c(-c4ccc(Br)cc4)[nH]nc3n2)cc1OC the results were TAR Tat displ 1.5.
`CCn1c(CC2C(=O)N(C(C)C)c3ccccc32)nc2ccccc2c1=O` (stereo not drawn) gave TAR Tat displ 0.48 and CDC25B-CDK2 inh 1.2.
Screening NC1=NC(c2cccc(Cl)c2)n2c(nc3ccccc32)N1 (stereo not drawn) returned TAR Tat displ -0.91 and CDC25B-CDK2 inh -0.34.
`CC(C)Oc1ccc(CN2C(=O)c3ccncc3C2=O)cc1` gave TAR Tat displ 0.59.
Screening CCc1ccc(C(=O)CC2(O)C(=O)N(CC)c3ccccc32)cc1 (stereo not drawn) returned TAR Tat displ 1.2 and CDC25B-CDK2 inh -0.13.
Screening Cc1noc2ncnc(NCC3CCCO3)c12 (stereo not drawn) returned TAR Tat displ 0.02.
For Cc1c(/C=N/NC(=S)Nc2ccc(Cl)cc2)sc2ccccc12 the results were CDC25B-CDK2 inh -0.07.
Cc1ccc(C)c(Cn2cccc2CNS(=O)(=O)c2ccccc2)c1 was read as TAR Tat displ -0.61.
O=c1c2ccccc2nc2n1CCCS2 was read as CDC25B-CDK2 inh -0.61.
Screening COc1cc(/C=N/NC(=O)c2cc(C34CC5CC(CC(C5)C3)C4)[nH]n2)cc(OC)c1OC returned CDC25B-CDK2 inh -1.6.
Screening O=c1oc2cc3occ(-c4ccccc4)c3cc2c2ccccc12 returned TAR Tat displ -0.52 and CDC25B-CDK2 inh -1.1.
COc1ccc(-n2c(SCC(=O)N3CCCC3)nc3c(c2=O)SC(C)C3)cc1 (stereo not drawn) was read as TAR Tat displ 0.1 and CDC25B-CDK2 inh -1.9.
Screening CC1CCCCN1CCCNC(=O)CCCN1C(=O)CCn2nc(-c3cccn3C)cc21 (stereo not drawn) returned TAR Tat displ -5.
Screening O=c1cc2nc(-c3ccccc3F)nc(SCc3cc(=O)n4nc(C5CC5)sc4n3)n2[nH]1 returned TAR Tat displ 0.55.
Screening COc1ccc(/C(C#N)=C/c2cn[nH]c2)cc1 returned CDC25B-CDK2 inh -1.1.
CCOC(=O)c1c(S(=O)(=O)N2CCCC(C(=O)NC3CCC(C)CC3)C2)c(C)n(CC)c1C (stereo not drawn) was read as TAR Tat displ 1.1.
Screening CCCNC(=O)c1nn2c(C(F)(F)F)cc(-c3cccs3)nc2c1Br returned TAR Tat displ 1.1 and CDC25B-CDK2 inh -1.7.
NC(=O)C1CCN(C(=O)C2CCN(c3ncnc4c3nc3n4CCCCC3)CC2)CC1 was read as TAR Tat displ -0.65.
For Cc1cc2n(n1)C(c1cccs1)Nc1ccccc1-2 (stereo not drawn) the results were TAR Tat displ 0.8 and CDC25B-CDK2 inh 0.31.
`O=C1CC(c2ccccc2Cl)C2=C(CC(c3cccs3)CC2=O)N1` (stereo not drawn) gave TAR Tat displ 0.32 and CDC25B-CDK2 inh -0.6.
Cc1cc(-c2ccc(=O)[nH]n2)cc(S(=O)(=O)N2CCOCC2)c1C was read as TAR Tat displ 0.89.
`COC(=O)c1cc2ccccc2cn1` gave CDC25B-CDK2 inh -1.7.
`Cc1ccc(-c2cnc(C3CC3)o2)cc1S(=O)(=O)NCc1ccco1` gave TAR Tat displ 1.1.
Cc1cc(C)c(S(=O)(=O)NCCc2csc3nc(-c4ccccc4F)nn23)cc1C was read as TAR Tat displ 1.6.
Screening Cc1nnc(SCc2cc(=O)n3[nH]cnc3n2)s1 returned CDC25B-CDK2 inh 0.16.
For CCOC(=O)c1c(NC(=O)c2nn(-c3ccc(Cl)cc3)ccc2=O)sc(C)c1C the results were TAR Tat displ 0.02 and CDC25B-CDK2 inh 0.12.
Nc1c(C(=O)N2CCc3ccccc3C2)sc(=S)n1-c1ccccc1 was read as TAR Tat displ 1.8 and CDC25B-CDK2 inh -2.6.
Screening CSc1ncc2c(=O)n(CC(=O)NCCC(C)C)cnc2n1 returned TAR Tat displ -2.3.
CCCCCc1nnc(NC(=O)c2sc(C)nc2C)s1 was read as TAR Tat displ 1 and CDC25B-CDK2 inh -0.25.
For Fc1ccccc1Nc1nc(-c2ccccn2)cs1 the results were TAR Tat displ -1.9 and CDC25B-CDK2 inh -1.9.
NC(=O)CSc1nc2c(c(=O)n1Cc1ccccc1)C1(CCCCC1)Cc1ccccc1-2 was read as TAR Tat displ -0.11 and CDC25B-CDK2 inh -5.4.
CC(C)NC(=S)/N=C(\N)Nc1ccc(Cl)c(Cl)c1 was read as CDC25B-CDK2 inh -2.2.
